# Screens (PubChem BioAssay)
# GIRK2 act = opens human GIRK2 potassium channels; HEK293-GIRK2 thallium flux, Thallos fluorescence; calls only for hits at 25 µM; actives 0.05% (n = 63,000); AID 1259325;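 active = among the strongest 0.2% of first-round signals and kept after retests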;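 note: first round at about 10 µM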
# Target sequence (P48051 whole entry, looked up): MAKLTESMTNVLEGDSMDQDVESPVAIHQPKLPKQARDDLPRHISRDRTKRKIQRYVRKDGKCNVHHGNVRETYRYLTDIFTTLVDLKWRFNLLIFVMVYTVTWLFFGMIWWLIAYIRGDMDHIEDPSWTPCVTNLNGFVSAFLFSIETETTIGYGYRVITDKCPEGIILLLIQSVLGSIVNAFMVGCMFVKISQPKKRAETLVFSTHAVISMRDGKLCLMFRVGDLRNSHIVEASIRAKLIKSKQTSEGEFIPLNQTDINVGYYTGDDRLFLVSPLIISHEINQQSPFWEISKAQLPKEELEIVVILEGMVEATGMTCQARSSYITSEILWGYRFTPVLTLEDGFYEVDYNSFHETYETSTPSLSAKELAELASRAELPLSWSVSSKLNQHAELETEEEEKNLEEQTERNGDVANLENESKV
# Calls only; i = inactive. This is a subset; count on the stated rates, not on these rows.
canonical_smiles | GIRK2 act
O=C(CN1CCN(c2ccc3c(c2)OCO3)C1=O)Nc1ccc(F)c(C(F)(F)F)c1 | i
Cc1cc(C)n(-c2nccnc2SCC(=O)Nc2cccc(Cl)c2C)n1 | i
CN1CCc2c(sc(NC(=O)C(C)(C)C)c2-c2nc3ccccc3s2)C1 | i
CCOc1cc(NC(=O)Cc2noc3ccccc23)ncn1 | i
C[C@H]1[C@@H](OC(=O)CCC(=O)O)O[C@@H]2OC3(C)CC[C@H]4[C@H](C)CC[C@@H]1[C@@]24OO3 | i
COc1ccc(CC(C)(O)CNC(=O)c2nc3ccccc3s2)cc1 (stereo not given) | i
C=CC(C)(C)OCC(O)Cn1cnc2ccccc21 (stereo not given) | i
Cc1cn2c3c(=O)n(Cc4cccc5ccccc45)c(=O)n(C)c3nc2n1CCCO | i
O=C(O)C1CCCN1S(=O)(=O)c1ccc(F)c(Cl)c1 (stereo not given) | i
O=S(=O)(c1ccc(Br)s1)N1CCOC(c2cc(Cl)cc(Cl)c2)C1 (stereo not given) | i
Cc1ccc(C)c(COc2coc(CSc3nncn3C)cc2=O)c1 | i
COc1ccccc1CNC(=O)C(c1ccccc1)n1cccc1 (stereo not given) | i
COCCn1cnc2c(-c3ccccc3)cn(CC(=O)NCc3ccc(Cl)cc3)c2c1=O | i
COCCNC(=O)c1nnn(-c2ccc(NC(=O)c3ccccc3C)cc2)n1 | i
O=C(CSc1nnc(CCc2nc3ccccc3s2)o1)N1CCC2(CC1)OCCO2 | i
O=C(NCCC(O)c1ccoc1)C1CCC1 (stereo not given) | i
CCCn1c(=O)c2c(nc3n2CCCN3c2cc(OC)ccc2OC)n(C)c1=O | i
CCc1cccc(NC(=O)Cn2nc3c(SC4CCCCC4)nccn3c2=O)c1 | i
Cn1cccc1CN(Cc1cccs1)C(=O)C1(c2ccccc2)CCOCC1 | i
Cc1ccc(NC(=O)c2cn(Cc3ccc(NC(=O)c4ccccc4F)cc3)cn2)c(Cl)c1 | i
CN(C)CCNC(=O)C(=O)Nc1ccccc1[N+](=O)[O-] | i
O=C(Nc1cccc(C(F)(F)F)c1)N1CC(c2nc(Cc3ccccc3)no2)C1 | i
COc1ccc(-c2ccc(=O)n(CCNS(=O)(=O)c3ccc(NC(=O)C(C)C)cc3)n2)cc1 | i
COc1ccc(-c2csc(Nc3ccccn3)n2)cc1OC | i
Cc1nnc(NC(=O)CSc2cc(-c3ccccc3)ncn2)s1 | i
O=C(c1cccc(N2C(=O)CCC2=O)c1)N(CCn1cccn1)c1nc2ccccc2s1 | i
COc1ccc(CC(=O)NCc2ccc(C(=O)c3cccs3)s2)cc1OC | i
Cc1cc(NC(=O)CCCSc2ccc(NC(=O)c3ccc(F)cc3)nn2)no1 | i
O=C(Nc1cccs1)N1CCN(Cc2nnnn2-c2ccccc2)CC1 | i
CN(C)S(=O)(=O)NCC(Cc1cccc(F)c1)N1CCCC1=O (stereo not given) | i
CCOc1ccccc1-n1nnc(C(=O)Nc2cccc(OC)c2)c1C | i
CC(C)c1nccn1CC1CCN(C(=O)c2cc(-c3ccccc3)nn2C)CC1 | i
CCOc1ccccc1NC(=O)CN1C(=O)NC(CCC(=O)O)(c2ccccc2)C1=O (stereo not given) | i
O=C(c1ccc(Br)o1)N1CCN(Cc2nnnn2-c2ccccc2)CC1 | i
CCOC(=O)N1CCN(C(=O)Cc2csc(Nc3cccc(C)n3)n2)CC1 | i
COc1ccc(-c2ccc(N3CCN(S(C)(=O)=O)CC3)nn2)cc1 | i
CC(=O)Nc1ccc(S(=O)(=O)NCC(=O)O)cc1 | i
CCOc1ccc(C=Nc2nc3c(c(=O)n(C)c(=O)n3C)n2Cc2ccccc2)cc1 | i
COc1cc(/C=C2\SC(=S)N(c3cccc(F)c3)C2=O)cc(OC)c1OC | i
Cc1ccc2[nH]c3c(=O)n(CCC(=O)NCc4ccc(F)cc4F)cnc3c2c1 | i
CN(C)S(=O)(=O)N1CCc2nc(NC(=O)c3ccccn3)sc2C1 | i
CCOc1ccc(-c2cc(C(=O)N3CCC(NC(=O)c4ccc(C#N)cc4)CC3)[nH]n2)cc1 | i
COc1cc(-c2noc(-c3nn(-c4cccc(Cl)c4)c(=O)c4ccccc34)n2)cc(OC)c1OC | i
COc1cc(C(=O)Oc2ccc3c(c2)O/C(=C\c2cccnc2)C3=O)cc(OC)c1OC | i
O=C(NC1CC(=O)N(C2CC2)C1)c1ccsc1 (stereo not given) | i
COCCN1CCC(NC(=O)c2cnc3ccccc3n2)CC1 | i
COc1cccc2sc(OC3CN(C(=O)c4nc5ccccc5s4)C3)nc12 | i
Cc1nc2sccn2c1-c1nnc(SCC(=O)N2CCCc3ccccc32)n1C | i
COc1ccc(CCNC(=O)c2ccc(NS(=O)(=O)c3cccc(Cl)c3)cc2)cc1OC | i
O=C(CCc1csc(NC(=O)Nc2cccc(Cl)c2)n1)NC1CCCC1 | i
O=C(Nc1nc(C(=O)N2CCN(C(=O)c3ccco3)CC2)co1)C1CC1 | i
Cc1oc(-c2ccccc2)nc1CSc1nc2c(oc3ccccc32)c(=O)n1CC1CCCO1 (stereo not given) | i
O=c1oc2cc(OCCN3CC4CC(C3)c3cccc(=O)n3C4)ccc2cc1-c1ccccc1 (stereo not given) | i
COc1ccc2c(c1)c1nc(SCC(=O)Nc3ccccc3OC)n(C)c(=O)c1n2C | i
Cc1ccc2nc(N(CCN3CCOCC3)C(=O)c3ccc(S(=O)(=O)N(C)C)cc3)sc2c1 | i
CN1c2ccccc2-c2nc(SCC(=O)Nc3ccc4c(c3)OCO4)ncc2S1(=O)=O | i
COc1ccc2cc(C(=O)CS(=O)(=O)c3ccc(Cl)cc3)c(=O)oc2c1 | i
Cc1ccc(OCC(O)Cn2c(NCCCn3ccnc3)nc3c2c(=O)n(C)c(=O)n3C)cc1C (stereo not given) | i
CCOCC(=O)Nc1ccc(-n2nnn(C)c2=O)cc1 | i
Cc1ccc(C)c(N2CCN(C(=O)CCCn3c(=S)[nH]c4cc5c(cc4c3=O)OCO5)CC2)c1 | i

# Random excerpt: 6 records from the list, in no set order.
canonical_smiles | GIRK2 act
Cc1ccc(C)c(N2CCN(C(=O)CCCn3c(=S)[nH]c4cc5c(cc4c3=O)OCO5)CC2)c1 | i
CCOc1ccccc1NC(=O)CN1C(=O)NC(CCC(=O)O)(c2ccccc2)C1=O (stereo not given) | i
Cc1nc2sccn2c1-c1nnc(SCC(=O)N2CCCc3ccccc32)n1C | i
Cc1ccc(OCC(O)Cn2c(NCCCn3ccnc3)nc3c2c(=O)n(C)c(=O)n3C)cc1C (stereo not given) | i
CCOC(=O)N1CCN(C(=O)Cc2csc(Nc3cccc(C)n3)n2)CC1 | i
CC(=O)Nc1ccc(S(=O)(=O)NCC(=O)O)cc1 | i

# Additional records.
canonical_smiles | GIRK2 act
CC(=O)Nc1ccc(NC(=O)Cn2c(C)nc3c(c2=O)CN(Cc2ccccc2)CC3)cc1 | i
Cc1ccc(/C=C/S(=O)(=O)Nc2ccc3c(c2)CN(S(=O)(=O)c2ccccc2)CC3)cc1 | i
Cc1ccc(C)c(C(=O)NCCN2CCN(c3ccccc3)CC2)c1 | i
CCCC(=O)N1CCC(c2nn(C)c(=O)n2-c2ccccc2)CC1 | i
Cc1nc(-c2ccccc2Cl)sc1CNC(=O)Cc1ccc(F)cc1 | i
Cc1cc(C)n(-c2ncc(NC(=O)CNC(=O)c3ccccc3)cn2)n1 | i
COc1cccc(C(CNS(=O)(=O)Cc2cc(F)cc(F)c2)N2CCOCC2)c1 (stereo not given) | i
Cn1nc(N2CCC(C(=O)Nc3ccc(OC(F)(F)F)cc3)CC2)ccc1=O | i
O=C(NCCC(O)c1cccs1)NC1CCCCC1 (stereo not given) | i
COc1ccc(S(=O)(=O)NC(C)C)cc1N(C)S(=O)(=O)c1ccccc1 | i
CS(=O)(=O)c1cccc2sc(N3CCN(C(=O)COc4ccccc4)CC3)nc12 | i
Cc1cc(C(=O)Nc2nc(C(=O)Nc3nnc(C)s3)co2)no1 | i
O=C(O)[C@H]1O[C@@H](Oc2ccc(-c3coc4cc(O)cc(O)c4c3=O)cc2)[C@H](O)[C@@H](O)[C@@H]1O | i
COc1ccccc1-c1c(C)oc2cc(OCC#N)ccc2c1=O | i
Cc1ccc(N2C(=O)N(CCOc3ccc(F)cc3)S(=O)(=O)c3cccnc32)cc1 | i
CS(=O)(=O)N1CCCc2ccc(NC(=O)NCc3cccc4ccccc34)cc21 | i
COC(=O)CSc1nc2c(-c3ccccc3)c[nH]c2c(=O)[nH]1 | i
COc1ccc(OC)c(-c2ccc(N3CCN(C(=O)Nc4ccccc4F)CC3)nn2)c1 | i
Cc1cc(C(F)(F)F)nc(CCNS(=O)(=O)c2ccc3c(c2)CCCC3)n1 | i
COc1ccc(S(=O)(=O)N2CCCc3cc(NC(=O)C(C)(C)C)ccc32)cc1 | i
Cc1oncc1C(=O)N1CCC(c2cccs2)CC1 | i
COc1cccc2cc(C(=O)N3CCc4nc(NC(=O)c5cc(C)on5)sc4C3)oc12 | i
Cc1ccc(C)c(-c2nnc(NC(=O)c3ccc(OC(C)C)cc3)o2)c1 | i
Cc1ccccc1-n1nnc(C(=O)Nc2nccs2)c1-c1ccncc1 | i
COc1ccc(S(=O)(=O)Nc2ccc3c(c2)CCCN3S(=O)(=O)c2ccc(OC)cc2)cc1 | i
O=C(CN1CCN(CC(O)c2ccco2)CC1)NCc1ccco1 (stereo not given) | i
COc1ccc(NC(=O)c2cc(-c3ccccn3)nc3ccccc23)cc1 | i
CCS(=O)(=O)N1CCCC(COCc2ccccc2)C1 (stereo not given) | i
CCOc1ccc(C(C)C)cc1S(=O)(=O)NCCn1ncccc1=O | i
Cc1cc(NC(=O)CSc2nnc(N3CCN(C(=O)c4cccc([N+](=O)[O-])c4)CC3)s2)no1 | i
COC(=O)c1cc(=O)n(-c2ccccc2)[nH]1 | i
O=C(Nc1ccc(Cn2cnc(C(=O)Nc3ccccc3)c2)cc1)c1ccc2c(c1)OCO2 | i
COc1ccc(Nc2c(C(=O)N3CCSCC3)cnc3nc(C)ccc23)cc1OC | i
CC(Cc1ccco1)NS(C)(=O)=O (stereo not given) | i
COc1ccccc1NC(=O)CSc1n[nH]c(=O)c2cc(-c3ccc(F)cc3)nn12 | i
O=C(CSc1nc2ncccc2c(=O)n1Cc1ccccc1)Nc1ccc(Cl)cc1F | i
CCC(=O)Nc1oc2c(sc3ccccc32)c(=O)c1-c1ccc(OC)cc1 | i
COc1ccc(CCNC(=O)N2CCC3(CC2)OCCS3)cc1 | i
COc1ccc(CNc2nc3ccccc3nc2NS(=O)(=O)c2ccc(F)cc2)cc1 | i
CCc1cc(CC)n(-c2nc3c(c(=O)n(Cc4ccc(OC)cc4)c(=O)n3C)n2C)n1 | i
COc1cccc(N2CC(C(=O)Nc3ccc(-n4nnn(C)c4=O)cc3)CC2=O)c1 (stereo not given) | i
O=C(Cn1cccc(S(=O)(=O)N2CCCCCC2)c1=O)NC1CCCCC1 | i
CCOc1ccc(NC(=O)Cn2nc3c4ccc(Cl)cc4ncn3c2=O)cc1 | i
COCCCn1c(C(=O)Nc2cccc3ccccc23)cc2c(=O)n3cccc(C)c3nc21 | i
Cn1cc(C(=O)NCCn2nc(-c3ccco3)ccc2=O)nn1 | i
COc1ccccc1CNS(=O)(=O)C1CC1 | i
C[C@@H](Oc1cc(-n2cnc3ccc(OCC4CCN(C)CC4)cc32)sc1C(N)=O)c1ccccc1Cl | i
Cc1cc(C)c(S(=O)(=O)N2CCCc3ccccc32)c(C)c1 | i
Cc1cc(C)c(S(=O)(=O)NCCC(=O)O)cc1N(C)S(C)(=O)=O | i
c1ccc2c(c1)CCN2c1nc(N2CCOCC2)nc(N2CCOCC2)n1 | i
COc1ccc(-c2csc3ncnc(SCC(=O)Nc4ccc(S(N)(=O)=O)cc4)c23)cc1 | i
Nc1c(C(=O)NCC2CCCO2)c2nc3ccccc3nc2n1/N=C\c1cccc(O)c1 (stereo not given) | i
O=C(COc1ccc(-n2cccn2)nn1)N1CCN(c2cc(N3CCCCC3)ncn2)CC1 | i
Cc1noc(CNC(=O)C2CCN(C(=O)c3cc(-c4ccccc4)n[nH]3)CC2)n1 | i
COc1ccc(C)cc1NC(=O)CSc1nc(C)nc2c1oc1ccccc12 | i
COCC1CCCN(Cc2ccc(Cl)c(Cl)c2)C1 (stereo not given) | i
COc1cccc2sc(N3CC(C(=O)Nc4cccc(SC)c4)C3)nc12 | i
COc1ccccc1-c1noc(-c2nn(-c3ccccc3)ccc2=O)n1 | i
O=C(CSc1ccc(-c2nc(-c3ccccc3)no2)cn1)NCc1ccco1 | i
C[N+](C)(C)CC(O)COc1ccc(C23CC4CC(CC(C4)C2)C3)cc1 (stereo not given) | i

# Next section:
canonical_smiles | GIRK2 act
CCCCOc1ccc(S(=O)(=O)Nc2cnc(Oc3ccccc3F)nc2)cc1 | i
COc1ccc(CCC(=O)Nc2ccc3c(c2)CCCN3S(=O)(=O)c2ccc(OC)cc2)cc1 | i
O=C(Nc1ccc(-n2cnnn2)cc1)c1csc(-n2cccc2)n1 | i
Cc1ccn(-c2ccc(C(=O)NCc3ccc(C(C)C)cc3)cn2)n1 | i
CC(=O)c1cccc(NC(=O)CSc2nccn3nc(-c4ccc(Cl)cc4)cc23)c1 | i
Cn1cc(C(=O)NCCC2=CCCCC2)c(S(=O)(=O)N2CCN(c3ccc(Cl)cc3)CC2)n1 | i
O=C(CCn1ccc(=O)[nH]c1=O)N1CCN(CCn2cccn2)CC1 | i
CCCCNC(=O)Cn1c(C)nc(-c2ccccn2)cc1=O | i
O=C(Nc1cccc(-c2nc3ccccc3[nH]2)c1)Nc1cccs1 | i
Cn1cc(C(=O)Nc2ccc(F)c(Cl)c2)nn1 | i

# Exported as labelled records: entries from further up
Cn1cc(C(=O)Nc2ccc(F)c(Cl)c2)nn1
  GIRK2 act = i

O=C(CCn1ccc(=O)[nH]c1=O)N1CCN(CCn2cccn2)CC1
  GIRK2 act = i

CCCCOc1ccc(S(=O)(=O)Nc2cnc(Oc3ccccc3F)nc2)cc1
  GIRK2 act = i

O=C(Nc1ccc(-n2cnnn2)cc1)c1csc(-n2cccc2)n1
  GIRK2 act = i
